# LANA-H2A inh: blockers of LANA interaction with H2A/H2B – biochemical, FP readout, HTS, primary screen; inhibition, % (no concentration beside the values); cell-free LANA-H2A/H2B peptide, fluorescence polarization; Protein LANA1 (Human herpesvirus 8 type P (isolate GK18)), Q9QR71; 320,000 compounds, 0.6% hits; in the data active = inhibition mostly above about 10%, no sharp cut-off; inactive = mostly below about 6.7%;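 note: stock transfer was 7.5 nL into about 10 µL; 0% = median of vehicle wells and 100% = median of positive control wells; one replicate is shown; the record names a cut of 25% in any replicate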
# Target sequence (Q9QR71 whole entry, looked up): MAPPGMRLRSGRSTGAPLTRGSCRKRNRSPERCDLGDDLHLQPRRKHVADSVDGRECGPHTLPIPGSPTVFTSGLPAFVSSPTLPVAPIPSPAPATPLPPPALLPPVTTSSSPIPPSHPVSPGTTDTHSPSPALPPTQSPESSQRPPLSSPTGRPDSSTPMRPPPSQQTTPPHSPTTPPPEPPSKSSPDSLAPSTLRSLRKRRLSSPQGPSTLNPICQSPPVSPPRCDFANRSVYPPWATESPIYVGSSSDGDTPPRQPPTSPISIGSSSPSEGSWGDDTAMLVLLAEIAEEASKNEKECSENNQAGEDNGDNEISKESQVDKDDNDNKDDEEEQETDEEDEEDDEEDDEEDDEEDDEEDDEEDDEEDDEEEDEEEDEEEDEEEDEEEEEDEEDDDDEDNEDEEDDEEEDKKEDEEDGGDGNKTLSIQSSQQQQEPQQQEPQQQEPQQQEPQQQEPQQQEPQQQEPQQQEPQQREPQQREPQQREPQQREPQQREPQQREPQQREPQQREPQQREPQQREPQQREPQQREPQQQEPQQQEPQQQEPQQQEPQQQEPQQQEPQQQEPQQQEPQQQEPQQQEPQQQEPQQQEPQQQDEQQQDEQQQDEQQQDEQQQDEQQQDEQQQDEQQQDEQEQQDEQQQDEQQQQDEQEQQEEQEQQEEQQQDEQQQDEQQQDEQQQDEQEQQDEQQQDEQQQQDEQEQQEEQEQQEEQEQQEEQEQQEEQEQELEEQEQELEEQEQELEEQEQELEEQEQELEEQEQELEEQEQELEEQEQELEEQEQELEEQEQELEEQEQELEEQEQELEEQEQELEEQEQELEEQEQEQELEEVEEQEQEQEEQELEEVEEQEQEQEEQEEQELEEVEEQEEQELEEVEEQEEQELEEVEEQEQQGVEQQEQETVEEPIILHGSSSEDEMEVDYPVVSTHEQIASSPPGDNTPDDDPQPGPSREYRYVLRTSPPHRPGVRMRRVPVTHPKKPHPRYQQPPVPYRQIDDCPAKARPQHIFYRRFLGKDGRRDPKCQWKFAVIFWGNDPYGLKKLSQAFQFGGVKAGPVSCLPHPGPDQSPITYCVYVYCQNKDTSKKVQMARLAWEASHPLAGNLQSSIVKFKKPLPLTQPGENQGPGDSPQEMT
# Beta cell apopt: inhibitors of cytokine-induced beta cell apoptosis, primary screen, luminescence | INS-1E cytokine-induced death, ATP luminescence, 48 h; percent of positive-control rescue, neutral wells zero | protection from apoptosis, % (test concentration not listed) | 300,000 compounds, 0.8% hits;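 active = all replicates at 75% or more, or half of them and the mean; inconclusive = half reach 75% but not the mean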;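 note: 0% = cytokine-treated negative control wells and 100% = positive control rescue; higher means more ATP so stronger rescue from cytokine killing; wells of about 40 µL received 100 nL stock; the first replicate is given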
# B2AR ag: beta2AR agonists driving receptor internalization, primary screen, cell-based, FAP fluorogen, flow cytometry | 340,000 compounds, 0.43% hits | Am2.2-beta2AR cells; reference of the scale not given here | response, % (no concentration beside the values);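 active = response above a set limit, near 3 SD of response in nonfluorescent compounds, cut at about 42% in these data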;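 note: stock transfer was 100 nL into about 11 µL; a reference agonist was the positive control; negative values mostly stem from fluorescent compounds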
# Calb FLC: C. albicans growth inhibition with fluconazole, primary screen, CaCi-2 strain, Alamar Blue fluorescence; C. albicans CaCi-2 (fluconazole-resistant clinical isolate) + fluconazole, 48 h; 300,000 compounds, 0.57% hits; growth inhibition, % (concentration not given with the values);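 active = most replicates above 75%; inconclusive = exactly half above 75%; inactive = most below 75%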;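 note: all wells also contain fluconazole at 8 µg/ml as a sub-toxic cotreatment; 0% = median of DMSO wells and 100% = median of geldanamycin control wells; wells of about 8 µL received 7.5 nL stock; the first replicate is given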
# T cruzi repl: inhibitors of intracellular T. cruzi growth, primary screen, luminescence, NIH3T3 host cells | T. cruzi beta-gal in NIH3T3, 90 h | inhibition, % (no concentration beside the values) | 300,000 compounds, 1.4% hits;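 active = mean inhibition across valid replicates above about 55%, limit read from the data; inconclusive = mean below that limit but half or more replicates reach it; inactive = mean below it, under half of replicates reach it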;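 note: signal also drops with host cell toxicity which is not excluded here; 0% = plate median of DMSO wells and 100% = zero luminescence signal; higher percent means less beta-gal luminescence so fewer parasites; stock transfer was 50 nL into about 50 µL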
# A1 inh: caspase 3/7 activation in MEF A1-2A-BIM cells, primary screen, A1 inhibitor project, cell-based, luminescence, HTS; caspase activation, % (test concentration not listed); 330,000 compounds, 0.066% hits; Caspase-Glo 3/7 luminescence, 3 h; percent of clofoctol response, vehicle zero;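 active = over half of replicate activation scores above 10%, or exactly half above 10 with the replicate mean above 10; inconclusive = replicate mean below 10 yet half the replicates above 10; inactive = over half of replicates below 10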;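 note: wells of about 30 µL received 50 nL stock; many hits fall short of the cut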
# rRNA inh HTS: reduced GFP signal of wild-type E. coli, primary screen, bacterial rRNA inhibitor project, GFP/RFP fluorescence, OD600, single point; E. coli WT GFP vs humanized-ribosome RFP mutants, 24 h; stronger effect = lower value; DMSO median 0, no signal -100; 350,000 compounds, 1.6% hits; AID 720706, 2013; GFP signal change (wild-type ribosome), % (no concentration beside the values);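 active = significant combined selectivity score with lowered wild-type GFP, culture density cut under 30%, mutant RFP and density less affected; inactive = any of these conditions unmet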; note: one replicate is shown; some compounds called inactive have numbers as strong as hits
# ALR inh: inhibitors of human ALR sulfhydryl oxidase, primary screen, biochemical, H2O2 detection, HRP-luminol luminescence, single point; purified ALR, DTT oxidation; inhibition, % (no concentration beside the values); 290,000 compounds, 3.8% hits;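 active = mean and each replicate at 75% or more; inconclusive = only one of the two met; inactive = neither met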;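 note: stock transfer was 7.5 nL into about 7.5 µL; 0% = neutral wells and 100% = wells with inactivated enzyme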
# rRNA inh HTS OD600: second read-out of rRNA inh HTS, no call of its own (marks repeat the call); OD600 change, %; measured here: OD600 growth;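 optical density of the mix in the first replicate; 0 = DMSO median and -100 = no signal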
# rRNA inh HTS RFP: also measured in rRNA inh HTS; calls as there; RFP signal change, %; measured here: RFP humanized mutant strains;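 first replicate; 0 = DMSO median and -100 = no signal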
# Active calls of the source: *; ? = inconclusive; . = no result given; & = joins results of further samples. The list is partial (hit frequency here may not be typical).
SMILES	LANA-H2A inh	Beta cell apopt	B2AR ag	Calb FLC	T cruzi repl	A1 inh	rRNA inh HTS	rRNA inh HTS OD600	rRNA inh HTS RFP	ALR inh
O=C(COC(=O)/C=C/c1cc(Br)ccc1F)NC1CC1	-1.1	0.7	-1.2	.	.	-0.3	7.7	13.3	0.9	1.7
COC(=O)C1=C(C)NC2=C(C(=O)CCC2)C1c1cn(Cc2ccc(Cl)cc2Cl)nc1-c1ccccc1 (stereo unspecified)	1.5	9.3	-3.2	-9.1	32.8	-0.3	.	.	.	-5.4
Cn1c(CSCc2ccc(Cl)c(Cl)c2)nnc1SCC(=O)Nc1nccs1	3.5	-6.0	6.8	12.1	10.3	1.3	.	.	.	-4.1
CCn1c(CSc2nc3ccccc3[nH]2)n[nH]c1=S	-3.6	-5.9	-6.8	-4.7	.	-0.1	-4.9	2.7	2.0	95.6*
COC(=O)c1c(=O)n(O)c2ccc(OC)cc2[n+]1[O-]	54.6*	-1.6	-4.0	-10.6	4.5	0.3	.	.	.	-60.4
O=C(Nc1ccc(F)cc1)c1ccc(COc2ccccc2)cc1	1.4	5.7	-2.5	-0.5	-102.1	-4.7	8.5	7.3	-0.2	-5.3
O=C1CC(C(=O)N2CCOCC2)C2(CCCCC2)O1 (stereo unspecified)	0.7	3.4	11.2	7.1	-0.6	-0.2	7.1	3.6	9.5	-8.4
COc1ccc(Cn2c(=O)c3[nH]cnc3n(-c3ccc(C)cc3)c2=O)cc1	6.4	-6.3	0.4	-2.4	7.4	-0.7	-20.4*	-3.8*	-1.4*	-2.7
CCC(C)NCCOc1cc(C)cc(C)c1C (stereo unspecified)	-13.3	-2.3	0.9	9.5	3.9	-0.1	5.3	2.1	1.3	.
O=C(CCN1CCN2CCCC2C1)N1c2ccccc2Sc2ccc(Cl)cc21 (stereo unspecified)	6.8	-4.3	-7.2	-10.2	48.2	0.9	0.1	3.4	-2.7	-4.0
Cc1ccc(C)c(C(=O)COC(=O)CN2C(=O)C3C4CCC(C4)C3C2=O)c1 (stereo unspecified)	-0.7	-1.6	-1.9	-6.8	0.9	0.3	-5.3	-15.2	3.7	-2.0
OC(c1ccc(F)cc1)C(CN1CCOCC1)c1ccccc1 (stereo unspecified)	-0.6	1.6	0.7	1.7	-11.6	-1.4	11.0	12.3	1.5	-17.6
Cc1nc2ccccc2c2oc(C(=O)NCC3COc4ccccc4O3)cc12 (stereo unspecified)	-3.6	28.2	0.8	17.2	20.6	0.0	-27.8	-48.2	1.7	0.2
COC(=O)C1CCN(C(=O)Cc2ccc(OC)c(OC)c2)CC1	1.7	-2.8	5.0	7.9	-0.5	-0.1	.	.	.	-14.6
C=CCOc1ccccc1/C=c1\sc2nc(=O)c(C)nn2c1=O	0.1	-15.7	3.6	8.5	3.4	0.1	.	.	.	11.1
C[C@H](CO)N1C[C@H](C)[C@@H](CN(C)S(C)(=O)=O)Oc2ccc(NC(=O)CCC(F)(F)F)cc2C1=O	5.7	-0.2	-0.3	.	.	?	1.6&0.2	2.8&3.9	-2.1&-1.6	2.7
COc1ccc(C(=O)N/C(=C\c2ccccc2)C(=O)N2CCOCC2)cc1	-0.3	.	4.6	-2.7	-4.4	0.9	5.6	10.8	-5.6	-8.9
O=C(CCCOC(=O)c1ccc(O)cc1O)c1ccc(F)cc1	9.0	2.5	6.0	.	0.6	-0.7	-18.2	-17.6	-0.5	-12.4
O=C(CSc1nnc(Cc2cc(=O)[nH]c(=O)[nH]2)n1-c1ccccc1)N1CCCCC1	-2.5	-10.2	0.2	0.2	-12.8	-0.1	17.3	9.8	3.0	.
CCOc1ccc(NC(=O)c2sc(N3CCOCC3)nc2-c2ccccc2)cc1	2.3	.	-3.4	3.4	28.0	0.2	.	.	.	-4.0
CC(C)Oc1cccc(OCCN2C(=O)c3ccccc3C2=O)c1	1.6	1.6	-0.2	-16.8	-8.8	-0.5	-33.0	-27.6	3.3	.
CCc1ccccc1NS(=O)(=O)c1cc2c3c(c1)CCN3C(=O)CC2	.	.	-4.5	2.1	9.7	.	-1.1	5.3	-1.2	.
NC(=O)c1cc(S(=O)(=O)NCCCc2ccccc2)cs1	-2.6	-2.0	0.2	-4.9	-1.1	1.3	1.8	-2.9	4.1	4.4
Cn1c(=O)c(=O)n(C)c2cc(S(=O)(=O)N3CCN(c4ccc(F)cc4)CC3)ccc21	-1.6	0.6	4.9	0.9	-2.7	0.0	.	.	.	-1.2
CN(CC(=O)N1CCN(c2cccc(Cl)c2)CC1)S(=O)(=O)c1cccs1	-4.5	2.9	53.0*	2.0	3.7	0.7	.	.	.	-3.2
CC[n+]1c(C)sc2c3ccsc3ccc21	-1.0	-16.6	9.6	7.4	33.3	0.1	10.9	16.9	9.9	45.8
CCOC(=O)C1CCN(C(=O)COc2ccc(S(=O)(=O)NC(C)(C)C)cc2)CC1	-3.5	-4.1	23.6	4.0	-1.8	0.6	.	.	.	2.6
O=C(NCC(=O)N1CCCC(C(F)(F)F)C1)c1ccc(Oc2ccccc2)cc1 (stereo unspecified)	3.6	6.3	-5.3	14.3	9.0	0.6	-2.6	-15.8	2.9	-1.2
Cc1ccc(NS(=O)(=O)c2ccc(C(=O)N3CCCCCC3)cc2)cc1	-5.0	-3.2	2.0	.	.	-0.9	-0.7	-21.9	0.1	1.6
CCOC(=O)CC(NC(=O)c1cc2cc(Br)ccc2oc1=O)c1cccc([N+](=O)[O-])c1 (stereo unspecified)	.	1.3	-3.7	-1.9	-20.5	-0.1	.	.	.	.
O=C1CCCc2sccc2N1	3.7	-3.1	-0.5	9.8	17.9	0.0	12.2	11.5	2.9	-26.8
CC12CC(NC(=O)N1c1cccc(C(=O)NCc3ccccc3)c1)c1ccccc1O2 (stereo unspecified)	1.5	1.5	.	13.1	0.1	0.9	.	.	.	-4.0
Cc1ccc(-c2cc(C(=O)NCc3ccco3)c3ccccc3n2)s1	-1.0	-0.2	0.8	7.8	-1.0	-0.6	.	.	.	1.8
CC1CCN(C(=S)NC(=O)c2ccc(C(C)(C)C)cc2)CC1	.	.	-10.4	-9.7	38.1	.	-28.1	-32.3	-5.8	.
O=C(c1ccco1)N1CCN(C(=O)c2cc3cc([N+](=O)[O-])ccc3oc2=O)CC1	0.3	0.7	-5.2	35.9	8.9	?	3.0	-0.4	-1.8	-4.0
COc1ccc2c(C)c(CC(=O)N3C[C@H]4C[C@@H](C3)c3cccc(=O)n3C4)c(=O)oc2c1OC	-3.7	-6.1	2.0	-5.0	-14.5	0.3	.	.	.	.
CCOc1ccc2oc(C(=O)N3CCCN(C)CC3)c(C)c2c1	-1.5	-1.6	-1.8	.	.	1.5	12.5	12.9	-0.3	-33.6
Cc1ccc(-n2c(SCC(=O)Nc3ccc4c(c3)OCCO4)nnc2-c2ccco2)cc1	0.4	-4.0	-13.5	7.5	-6.5	1.3	.	.	.	-4.7
O=C(NCCN1CCOCC1)C1CC(=O)N(c2ccc(F)cc2)C1 (stereo unspecified)	3.4	-6.0	3.1	1.6	-7.0	1.4	2.3	2.2	-2.6	0.7
COc1ccc(C(=O)NC(=S)NCc2ccccc2)cc1OC	-2.5	-4.0	-13.9	-5.1	20.2	0.9	-9.5	-2.1	0.4	0.7
CC(=O)c1sc2nc(-c3ccco3)ccc2c1N	-4.2	0.4	7.9	1.8	1.5	-3.3	.	.	.	-17.7
CCOC(=O)[C@@H]1[C@H]2COc3ccc(Br)cc3[C@@H]2N2C(=O)N(c3ccccc3)C(=O)[C@@]12C	5.2	-5.5	-0.3	-0.2	-7.3	-0.1	-16.3	-6.5	-12.2	-2.8
C/C(CC(=O)NC(C)c1ccccc1)=N\NC(N)=S (stereo unspecified)	1.1	-3.4	1.9	0.2	-9.3	0.1	1.4	-2.8	4.7	-1.7
CC(=O)NNC(=S)Nc1cc(S(=O)(=O)N(C)C)ccc1C	-1.2	1.2	1.9	-32.5	-11.7	-0.4	.	.	.	62.7
COc1cc2c3c(c1OC)C1(C=CC(=NNC(N)=O)C=C1)CC3N(C(C)=O)CC2 (stereo unspecified)	1.9	-2.2	1.1	3.2	-7.0	1.1	0.4	2.9	4.4	-28.7
Cc1ccc(NC(=O)CN(C)C(=O)Cc2ccc(Cl)c(Cl)c2)cc1	1.7	0.2	-7.8	-3.6	6.3	-0.2	-5.4	-6.4	3.2	.
CCc1nnc(NC(=O)CSc2nnc(C3CCCCC3)n2-c2ccccc2)s1	-2.0	2.9	-6.0	-0.2	20.8	0.2	.	.	.	-19.0
Cc1ccccc1N1CCN(C2CCCN(C(=O)CCn3cnnn3)C2)CC1 (stereo unspecified)	-4.3	-4.0	5.9	10.1	8.1	2.3	8.0	5.1	-0.9	22.7
O=C(CC12CC3CC(CC(C3)C1)C2)NCCN1CCOCC1	1.2	-3.9	-3.9	-3.1	1.1	0.7	.	.	.	-2.3
CCOCCCN1C(=O)CN(C2CCCCC2)C(=O)C1c1ccc(OCC)c(OC)c1 (stereo unspecified)	1.5	-3.5	0.3	19.4	-0.3	-0.1	.	.	.	-6.0
COc1cccc(CN2CCc3[nH]c(=S)[nH]c(=O)c3C2)c1	0.6	-1.4	4.8	.	-9.1	-0.3	-53.0	-79.6	-15.6	40.5
O=C(c1ccccc1F)N1CCN(c2ccc([N+](=O)[O-])c(NCC3CCCO3)c2)CC1 (stereo unspecified)	-1.5	5.0	7.2	17.6	24.2	-0.9	-8.4	-7.3	-0.6	-14.7
NC(=O)C(CC(=O)O)NC(=O)[C@@H]1CCOc2c(I)cc([N+](=O)[O-])cc2C(=O)N[C@@H](CCC(=O)O)C(=O)N[C@@H](CO)C(=O)N1 (stereo partly specified)	2.8	-6.2	.	.	.	-0.7	.	.	.	-17.2
CCN(CC)c1ccc([N+](=O)[O-])cc1C(=O)N1CCOCC1	-3.5	-4.3	-1.9	7.9	7.4	0.6	14.9	1.1	-1.4	1.8
Cc1nc2ccccc2n1CC(=O)OCC(=O)N1CCC(C)CC1	3.2	-0.1	0.2	.	.	-1.0	-9.3	-7.7	0.3	-3.2
CCN(CC)C(=S)NCCc1ccccc1	3.5	0.0	-4.2	-2.7	-2.7	-0.3	10.5	4.0	2.4	4.8

# Screening data: PubChem, several laboratories
